Compound activity (PubChem)
A1 inh: caspase 3/7 activation in MEF A1-2A-BIM cells, primary screen, A1 inhibitor project, cell-based, luminescence, HTS | 330,000 tested, 0.066% active | AID 2462, 2010 | Caspase-Glo 3/7 luminescence, 3 h; percent of clofoctol response, vehicle zero | caspase activation, % (test concentration not listed);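 active = over half of replicate activation scores above 10%, or exactly half above 10 with the replicate mean above 10; inconclusive = replicate mean below 10 yet half the replicates above 10; inactive = over half of replicates below 10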;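 note: wells of about 30 µL received 50 nL stock; many hits fall short of the cut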
Vif A3G: inhibitors of Vif binding to APOBEC3G peptide, primary screen, biochemical, TR-FRET, GST-Vif 1-94, biotin-A3G peptide, dose response retest (AID 1117319); TR-FRET GST-Vif / biotin-A3G peptide binding; higher % means a stronger effect; test concentration not given here; strong numbers were not always called active; 260,000 tested, 0.57% active; inhibition, %, or IC50 in µM where a hit was titrated;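 active = above the screen mean plus three standard deviations and confirmed in dose response; inconclusive = results disagree or hit not tested in dose response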;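 note: Vif residues 1-94 fused to GST binding biotinylated APOBEC3G peptide 110-148; 0% = full assay without inhibitor and 100% = GST in place of GST-Vif; retest series ran down from 100 µM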
T cruzi inh: inhibitors of intracellular T. cruzi growth, primary screen, luminescence, NIH3T3 host cells | T. cruzi beta-gal in NIH3T3, 90 h | inhibition, % (test concentration not listed) | 300,000 tested, 1.4% active | AID 1885, 2009;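 active = mean inhibition across valid replicates above about 55%, limit read from the data; inconclusive = mean below that limit but half or more replicates reach it; inactive = mean below it, under half of replicates reach it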;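 note: signal also drops with host cell toxicity which is not excluded here; 0% = plate median of DMSO wells and 100% = zero luminescence signal; higher percent means less beta-gal luminescence so fewer parasites; stock transfer was 50 nL into about 50 µL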
RanGTP-Imp inh: inhibitors of RanGTP-importin-beta interaction, primary screen, biochemical, FRET, CFP-Ran, YFP-importin-beta, homogeneous. 300,000 tested, 1.1% active. AID 2216, 2009. cell-free CFP-Ran/YFP-importin-beta FRET ratio. inhibition, % (concentration not given with the values). Ran GTPase (GTP-bound) - importin-beta complex;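 active = most replicates above 15%; inconclusive = exactly half above 15%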;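 note: 0% = DMSO wells and 100% = Ran loaded with GDP instead of GTP; wells of about 40 µL received 100 nL stock; the first replicate is given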
Beta apoptosis: inhibitors of cytokine-induced beta cell apoptosis, primary screen, luminescence; INS-1E cytokine-induced death, ATP luminescence, 48 h; percent of positive-control rescue, neutral wells zero; AID 435005, 2010; protection from apoptosis, % (concentration not given with the values); 300,000 tested, 0.8% active;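 active = all replicates at 75% or more, or half of them and the mean; inconclusive = half reach 75% but not the mean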;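 note: 0% = cytokine-treated negative control wells and 100% = positive control rescue; higher means more ATP so stronger rescue from cytokine killing; wells of about 40 µL received 100 nL stock; the first replicate is given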
MLL AF4-AF9 inh: inhibitors of AF4 peptide binding to AF9, primary screen, biochemical, AlphaScreen, biotin-AF4 peptide, FLAG-AF9, single point; Protein AF-9 (Homo sapiens), P42568; 350,000 tested, 0.47% active; AID 651704, 2012; inhibition, % at 10 µM;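 active = every replicate reaching a set inhibition limit, whatever the replicate mean, cut at about 25% in these data; inconclusive = mean inhibition reaches that limit but some replicates miss it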;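 note: 0% = plate neutral control median and 100% = total signal loss; the record names both 10 and 1 µM as test concentration; the first replicate is given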
Target sequence (P42568 whole entry, looked up): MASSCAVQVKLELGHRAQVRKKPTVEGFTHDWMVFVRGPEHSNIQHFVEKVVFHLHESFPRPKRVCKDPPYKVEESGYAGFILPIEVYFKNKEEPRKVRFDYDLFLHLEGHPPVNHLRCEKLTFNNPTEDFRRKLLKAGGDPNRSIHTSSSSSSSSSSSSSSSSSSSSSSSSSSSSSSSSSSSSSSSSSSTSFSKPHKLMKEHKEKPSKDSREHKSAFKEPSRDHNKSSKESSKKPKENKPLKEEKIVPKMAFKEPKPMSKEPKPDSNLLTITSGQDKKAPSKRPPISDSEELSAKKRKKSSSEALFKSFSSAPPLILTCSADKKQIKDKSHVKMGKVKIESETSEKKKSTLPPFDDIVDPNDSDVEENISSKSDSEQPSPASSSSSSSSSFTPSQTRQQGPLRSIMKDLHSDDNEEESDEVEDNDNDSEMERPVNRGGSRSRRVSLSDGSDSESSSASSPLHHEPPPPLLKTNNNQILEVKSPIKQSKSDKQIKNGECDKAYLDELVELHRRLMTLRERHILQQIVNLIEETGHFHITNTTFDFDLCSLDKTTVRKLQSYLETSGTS
LANA-H2A inh: blockers of LANA interaction with H2A/H2B – biochemical, FP readout, HTS, primary screen. Protein LANA1 (Human herpesvirus 8 type P (isolate GK18)), Q9QR71. cell-free LANA-H2A/H2B peptide, fluorescence polarization. inhibition, % (test concentration not listed). 320,000 tested, 0.6% active; in the data active = inhibition mostly above about 10%, no sharp cut-off; inactive = mostly below about 6.7%;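 note: stock transfer was 7.5 nL into about 10 µL; 0% = median of vehicle wells and 100% = median of positive control wells; one replicate is shown; the record names a cut of 25% in any replicate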
Calb FLC: C. albicans growth inhibition with fluconazole, primary screen, CaCi-2 strain, Alamar Blue fluorescence. C. albicans CaCi-2 (fluconazole-resistant clinical isolate) + fluconazole, 48 h. growth inhibition, % (concentration not given with the values). 300,000 tested, 0.57% active. AID 1979, 2009;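 active = most replicates above 75%; inconclusive = exactly half above 75%; inactive = most below 75%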;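 note: all wells also contain fluconazole at 8 µg/ml as a sub-toxic cotreatment; 0% = median of DMSO wells and 100% = median of geldanamycin control wells; wells of about 8 µL received 7.5 nL stock; the first replicate is given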
* = called active by the depositor; ? = inconclusive; . = not tested or not shown; & = joins results of further samples; ! = a repeat was not active. Outcome played no part in choosing rows. Share with any hit: about 4.3%.

SMILES	A1 inh	Vif A3G	T cruzi inh	RanGTP-Imp inh	Beta apoptosis	MLL AF4-AF9 inh	LANA-H2A inh	Calb FLC
CCN(CC)S(=O)(=O)c1ccc(OC)c(NC(=O)c2ccc3c(c2)OCO3)c1	2.2	-2%	11	-2.0	-2	-0.8	1.1	-13
Cc1nc2ccccc2c(=O)n1NC(=O)C1CC1C (stereo not drawn)	-0.4	27%	-16	5.7	5	-13	2.0	-1
O=C(CN1CCOCC1)N/N=C/C=C/c1ccccc1	-0.4	.	-10	-3.0	-15	-0.2	3.7	20
COc1ccc(/C=N\NC(=O)c2sccc2C)cc1Cn1nc(C)cc1C	-0.6	.	21	-2.7	-6	-10	-0.5	-3
O=C(O)c1cccc(N=NN2CCOCC2)c1	0.1	0%	1	7.2	13	-1.2	2.1	16
O=C(NCc1ccco1)c1cccc(S(=O)(=O)N2CCOCC2)c1	0.8	1%	-15	1.0	1	.	0.3	8
COC(=O)c1ccc(Cn2nc(C)c(Br)c2C)cc1	-1.7	3%	-11	3.6	-8	.	-23	-24
CCOc1ccccc1N(CC(=O)N(C)Cc1ccccc1)S(=O)(=O)c1ccccc1	-1.0	-2%	24	-1.3	-5	-6.4	-1.0	-3
Nc1nc(=S)[nH]c2c1C1(CCCC1)Cc1ccccc1-2	0.6	-14%	36	-6.5	-8	.	2.4	8
CCC1(CC)NC(=O)N(CC(=O)OCC(=O)NC(=O)c2ccccc2)C1=O	-0.6	-3%	0	0.1	0	-1.7	2.8	27
CCOc1ccccc1OCCCC(=O)Nc1cccc(S(=O)(=O)N2CCOCC2)c1	1.1	.	.	.	2	-2.9	0.7	.
CC(=O)Nc1ccc(NS(=O)(=O)c2ccc3[nH]c(=O)[nH]c3c2)cc1	-0.5	7%	-1	-2.8	-4	-2.0	7.1	-17
O=C(NNc1ccccc1[N+](=O)[O-])Nc1cccc(Cl)c1	0.9	20%	-2	6.4	-11	2.1	1.6	21
CC(=O)c1c(C)[nH]c(C(=O)N(C)CC(=O)Nc2ccc(Cl)c(C(F)(F)F)c2)c1C	-0.8	1%	17	-1.3	-6	-1.6	-1.7	5
Cc1ccc(-c2nc3ccccc3[nH]2)cc1NC(=O)c1sc2cc(Cl)ccc2c1Cl	0.4	4%	60*	0.5	3	.	-1.4	-5
CCC(Sc1nc(-c2ccccc2)c(C#N)c(=O)[nH]1)C(=O)Nc1nnc(C)s1 (stereo not drawn)	-0.2	-18%	5	-0.8	-4	.	-2.5	1
COCCN1C(=O)c2ccc(C(=O)NCc3ccco3)cc2C1=O	-0.4	.	-8	6.9	-13	-0.2	-1.2	3
CC(=O)c1ccc(-c2ccc(C(=O)NC3CC(C)(C)NC(C)(C)C3)o2)cc1	0.5	-6%	-12	2.8	-3	-5.7	-2.4	-1
CCOC(=O)c1noc(C)c1C(=O)Nc1cccc(F)c1	-2.0	-5%	.	-4.5	0	.	-1.5	-4
O=C(NCC(O)c1ccc([N+](=O)[O-])cc1)C1=COCCO1 (stereo not drawn)	-0.2	.	.	.	3	0.2	2.2	.
O=C(COC(=O)/C=C/c1ccccc1[N+](=O)[O-])NCC1CCCO1 (stereo not drawn)	0.3	-3%	-3	-1.5	-3	-0.2	-1.2	9
O=C(Nc1ccsc1C(=O)NC1CC1)c1ccccc1	0.2	32%	-5	-1.9	-8	.	4.3	11
COc1ccc(CCNC(=O)C2CCCN(S(=O)(=O)N3CC(C)CC(C)C3)C2)cc1OC (stereo not drawn)	-0.3	-6%	2	0.9	-4	-9.5	-7.5	-8
CC(NC(=O)/C(C#N)=C/c1ccc(Cl)c([N+](=O)[O-])c1)c1ccccc1 (stereo not drawn)	0.4	-7%	32	-0.1	0	2.7	2.4	-2
Cn1nnc2cc(C(=O)Nc3ccc4ccccc4c3)ccc21	-3.8	.	-4	3.1	-4	-2.3	-0.3	1
CN1C(C(=O)NCCc2cccs2)CC2Cn3c(nc4ccccc43)C21 (stereo not drawn)	-0.6	-2%	-6	?	-5	-1.2	-2.8	0
CCc1nnc(SCC(=O)Nc2ccc(N3CCN(S(C)(=O)=O)CC3)cc2)o1	1.1	.	0	-0.3	-1	-2.1	6.9	2
O=C(CN(c1ccc(F)cc1)S(=O)(=O)c1ccc2c(c1)OCCO2)NCc1ccccc1	-0.1	-3%	-15	-2.1	-2	.	3.4	3
CCNC(=O)OCc1cn(-c2ccc(Cl)cc2)nn1	1.1	.	-10	10	-5	3.8	-6.9	4
COc1cc(CCC(=O)NC2(C)CCS(=O)(=O)C2)cc(OC)c1OC (stereo not drawn)	-0.1	-4%	.	.	-3	-0.1	1.5	.
Cc1cccc(NC(=O)CNC(=O)CNC(=O)Cc2ccccc2)c1	-2.3	.	3	0.1	-4	-0.1	-0.5	-6
C/C(=N\NC(=O)C(=O)N/N=C(\C)c1cccc(O)c1)c1cccc(O)c1	-0.1	5%	0	-6.4	-5	-7.4	0.5	1
Cc1ccc2nc3c(cc2c1)c(NC(=O)c1ccccn1)nn3CC(C)C	-1.2	21%	17	116*	8	.	-2.3	-4
COC(=O)[C@@H]1[C@H]2C[C@H]3c4[nH]c5ccccc5c4CCN3C[C@@H]2CC[C@@H]1O	0.1&1.4	.	-14&-12	26*!	4&3	-0.8	-9.0&3.6	.
COc1cccc(N=Nc2ccc3cccnc3c2O)c1	-7.8	.	43	-6.3	90*	2.8	-4.4	86*
Nc1ccc2nc(SCC(=O)N3CCOCC3)sc2c1	-0.1	.	-5	4.8	2	-0.4	-3.4	-14
COCCn1nnnc1C(c1ccc(OC)cc1)N1CCN(C(=O)c2ccco2)CC1 (stereo not drawn)	0.0	7%	-4	1.8	-3	2.0	-2.2	10
CCC(=O)Nc1ccc(NC(=O)CSc2nnnn2CC)cc1C	0.2	3%	.	.	2	.	-4.8	.
COc1ccc(/C=C2\N=C3CCCCCN3C2=O)cc1OC	-1.4	0%	0	1.4	-16	.	-3.9	-13
CC(C)Cc1cc(C(C)(C)C)ccc1OC(=S)N(C)C	0.4	.	-1	-0.5	.	-13	5.6	-1
Cc1cc(C)nc(NCCO)n1	0.1	.	-17	-3.1	-7	-3.7	1.9	-12
CC12CCC(c3c(C(=O)Nc4nccs4)nn(-c4ccccc4)c31)C2(C)C (stereo not drawn)	-0.3	8%	26	6.7	11	.	3.3	-10
CC(C)(C)c1ccc(-c2nc(C=O)c3ccccn23)cc1	-0.4	-3%	-12	0.5	2	.	-28	22
Cc1nc(C(=O)NNC(=O)c2ccc(Cl)cc2)c(C(F)(F)F)o1	-0.6	.	-25	4.3	4	-4.9	0.8	7
Cc1ccc(C)c(NC(=O)/C(C#N)=C/c2cn(CC(=O)NCc3ccco3)c3ccccc23)c1	4.7	.	11	98*	95*	1.6	6.0	43
O=C(COC(=O)c1ccc(Cl)nc1)NCCc1ccccc1	-1.3	.	.	.	-2	-0.3	-4.0	.
NC(=O)SCC(=O)Nc1ccccc1C(=O)O	0.3	30%	-7	-3.8	-5	-1.1	-3.2	-2
COc1ccc(CSc2nnnn2-c2ccccc2)cc1	0.6	28%	18	1.4	5	.	-2.5	22
O=C(c1ccsc1)N1CCCC(Nc2cccc(F)c2)C1 (stereo not drawn)	1.4	.	-6	-0.8	-10	1.7	7.5	2
O=C(CSc1nnc2c(n1)[nH]c1ccc(F)cc12)N1CCOCC1	?	12%	8	0.2	5	-2.3	-5.1	-19

Other compounds.
SMILES	A1 inh	Vif A3G	T cruzi inh	RanGTP-Imp inh	Beta apoptosis	MLL AF4-AF9 inh	LANA-H2A inh	Calb FLC
Cc1ccc(S(=O)(=O)NCC(=O)N/N=C/c2ccc(Cl)cc2Cl)cc1	-1.1	.	-14	1.2	-8	7.1	1.5	13
Cc1ccc(N=Cc2cc3c(cc2O)OC(N)=C(C#N)C3c2ccccc2)cc1 (stereo not drawn)	0.2	22%	6	43*	-17	0.0	9.4	-7
CCCCn1c(=O)[nH]c2nc3cc(NC(C)=O)ccc3nc2c1=O	0.2	.	-8	-12	-1	-4.7	0.3	0
CCCCn1c(SCc2cccnc2)nc2c1c(=O)n(C)c(=O)n2C	1.1	7%	-7	0.5	9	.	5.6	7
OCCN1CCN(CC/C=C2/c3ccccc3Sc3ccc(C(F)(F)F)cc32)CC1	-0.1	.	23	1.6	6	27*	-5.0	-8
COc1ccc(N2CCN(C(=O)c3ccc(C(C)(C)C)cc3)CC2)cc1	0.0	7%	-12	0.9	-6	.	-1.6	-1
CCCCOC(=O)C(C)Nc1n[nH]c(=O)[nH]c1=O (stereo not drawn)	-0.4	-1%	-10	?	-2	.	3.5	0
COc1cccc(C2Nc3cc(Cl)c(S(N)(=O)=O)cc3S(=O)(=O)N2)c1 (stereo not drawn)	-0.4	2%	-3	0.6	-2	.	5.0	-4
CC(=O)NC1CCN(CC(=O)Nc2nccs2)CC1	0.7	.	3	0.0	-1	0.7	14	5
Cc1csc(NC(=O)CSc2nnc(-c3ccc(S(=O)(=O)N4CCCC4)cc3)o2)n1	0.5	1%&-10%	0	2.7	3	-8.8	-0.7	3
NC1=NC[C@@H](Cc2ccc(O)cc2)N1CCCCC1CCCCC1	-0.3	5%	33	6.9	57	?	-1.3	-34
COC(=O)c1ccc(CN2C(=O)NC3(CCCCC3)C2=O)cc1	-0.6	3%	-7	0.1	-5	-1.3	11	-5
O=C(CC1C(=O)NCCN1C(=O)Nc1ccc(F)cc1F)Nc1cc(Cl)ccc1Cl (stereo not drawn)	0.0	12%	8	5.2	-4	-2.0	-1.7	0
O=C1CCCc2c1cc(C(=O)NCc1ccco1)c(=O)n2-c1ccc(Cl)cc1	-0.7	4%	7	-0.7	4	.	-0.2	8
CS(=O)(=O)N(CC(=O)NC1CCCCCC1)Cc1ccccc1	1.1	-1%	5	?	-3	.	2.5	27
CC(=O)c1c(C)[nH]c(C(=O)COC(=O)c2c(-c3ccccc3)noc2C)c1C	-0.5	-8%	.	.	2	1.2	1.1	.
COC(=O)[C@@H]1C[C@@]2(O)[C@@H](O)[C@@H](O)[C@@H](O)C[C@H]2N1Cc1cc(OC)cc(OC)c1	-0.3	.	-7	-1.4	0	-7.1	1.0	6
COc1ccccc1NS(=O)(=O)c1ccc2c(c1)n(C)c(=O)n2C	-0.1	16%	-6	1.8	-1	0.5	4.9	1
N#CC1(C#N)C(C(=O)C23CC4CC(CC(C4)C2)C3)C12CCOCC2 (stereo not drawn)	0.3	.	9	-2.3	-2	-0.4	-2.5	-13
O=C(CNCc1ccc(F)cc1)Nc1ccccc1-c1ccccc1	-1.0	6%	0	0.9	3	-16	-4.0	-39
